High-throughput results from PubChem BioAssay.
KCNQ2 enhance: potentiators of rat KCNQ2 potassium channel; CHO-K1 KCNQ2, FluxOR thallium flux fluorescence; active compounds read high; B-score at 10 µM; 310,000 compounds, 0.54% hits; Potassium voltage-gated channel subfamily KQT member 2 (Rattus norvegicus), O88943;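 active = fluorescence ratio B-score at least 3 SD of library B-scores, with initial fluorescence B-score within 3 SD, cut at about 5.3 in these data; same plate scores as AID 2156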;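 also: B-score of peak minus minimum over baseline fluorescence ratio after K+ and Tl+ stimulus; positive B-score means potentiation of KCNQ2 with more thallium influx and brighter signal; only the inactives scoring about 0 or higher are listed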
Target sequence (O88943 whole entry, looked up): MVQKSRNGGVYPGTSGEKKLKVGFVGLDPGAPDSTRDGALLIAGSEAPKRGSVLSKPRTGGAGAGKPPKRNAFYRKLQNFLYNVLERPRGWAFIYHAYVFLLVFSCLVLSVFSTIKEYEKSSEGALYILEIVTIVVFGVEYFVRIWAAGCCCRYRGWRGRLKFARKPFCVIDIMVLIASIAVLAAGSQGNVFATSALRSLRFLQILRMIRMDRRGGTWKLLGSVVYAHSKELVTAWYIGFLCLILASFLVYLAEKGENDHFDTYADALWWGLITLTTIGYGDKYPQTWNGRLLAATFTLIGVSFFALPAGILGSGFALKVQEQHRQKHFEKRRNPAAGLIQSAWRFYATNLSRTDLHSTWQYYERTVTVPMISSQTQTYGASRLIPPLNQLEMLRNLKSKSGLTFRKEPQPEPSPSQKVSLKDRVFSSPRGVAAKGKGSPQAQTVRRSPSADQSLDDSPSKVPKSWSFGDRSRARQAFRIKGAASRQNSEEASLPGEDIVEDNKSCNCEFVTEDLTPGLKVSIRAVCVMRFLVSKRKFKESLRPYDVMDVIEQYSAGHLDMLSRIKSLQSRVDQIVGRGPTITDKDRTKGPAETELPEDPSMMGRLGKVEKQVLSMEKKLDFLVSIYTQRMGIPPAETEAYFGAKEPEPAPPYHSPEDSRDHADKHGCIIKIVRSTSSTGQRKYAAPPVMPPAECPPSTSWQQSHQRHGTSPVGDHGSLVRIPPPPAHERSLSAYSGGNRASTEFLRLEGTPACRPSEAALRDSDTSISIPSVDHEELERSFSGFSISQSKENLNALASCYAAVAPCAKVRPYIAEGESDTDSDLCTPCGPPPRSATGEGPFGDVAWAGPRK
KCNQ2 enhance baseline: second read-out of KCNQ2 enhance, no call of its own (marks repeat the call); B-score; compound at 10 µM; measured here: initial fluorescence intensity artifact check;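 brightness before thallium and not channel activity; 0 = typical well and far values either way flag optical interference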
Numbers without * were called inactive. Some of the compounds tested. The share of hits here may be higher or lower than overall.

SMILES	KCNQ2 enhance	KCNQ2 enhance baseline
CC(=O)Nc1cccc(NC(=O)c2cc(C)on2)c1	1.15	-0.57
O=C(CSCSCC(=O)Nc1ccc2c(c1)OCO2)Nc1ccc2c(c1)OCO2	2.6	-0.19
COc1cc2c(c(OC)c1OC)CC(=O)N(C)CC2	0.91	0.07
COc1ccc(NC(=O)c2cc(-c3ccco3)nc3ccccc23)cc1S(=O)(=O)N1CCOCC1	0.07	0.8
CCC(C)NC(=O)CN(c1cc(Cl)cc(Cl)c1)S(C)(=O)=O (centres undefined)	1.79	-0.53
O=C(CSc1nc2c(sc3ccccc32)c(=O)n1CCCN1CCOCC1)NC1CCCC1	0.01	1.29
COc1cc(C#Cc2c(-c3ccccc3)n(C)c3ccccc23)cc(OC)c1	1.21	0.02
CCCNC(=O)c1ccc(COc2cccc3ccccc23)o1	0.98	-0.44
Cc1ccc(C(=O)OCC(=O)c2c[nH]c3ccccc23)cc1S(=O)(=O)N1CCCCC1	1.23	-0.06
COc1cccc(CNC(=O)C2CCN(c3cnccn3)CC2)c1	0.71	0.78
O=C(NCCCn1ccnc1)c1cccc(S(=O)(=O)Nc2ccc(Br)cc2)c1	0.57	2.68
NC(=O)c1nsc(C(=O)N(Cc2ccccc2Cl)C(C(=O)NCC2CCCO2)c2ccc(O)cc2)c1N (centres undefined)	0.8	-0.58
COc1ccc(Nc2nc3ccc(C)cc3cc2C#N)c(OC)c1	1.13	-0.58
CCN(CC)S(=O)(=O)c1ccc2c(c1)nc(CCC(=O)O)n2CC	0.61	-0.19
CC(=O)Oc1cc2oc(=O)cc(C)c2cc1OC(C)=O	0.16	0.06
COc1ccc(OC)c(C2C(C#N)=C(N)N(N(C)C)C3=C2C(=O)CCC3)c1 (centres undefined)	0.16	0.12
COc1ccc(C(=O)O/N=C(\N)Cc2ccc(Cl)c(Cl)c2)cc1OC	0.65	-0.1
Cc1cc2oc(=O)cc(C)c2cc1NC(=O)CCl	0.05	-1.03
O=[N+]([O-])c1cc(/C=N/O)ccc1Sc1ccccc1	0.06	-1.05
Cn1c(Cn2nnc3ccccc32)nnc1SCC(=O)NCc1ccc2c(c1)OCO2	0.11	-0.17

Copied from the listing (two entries):
SMILES	KCNQ2 enhance	KCNQ2 enhance baseline
Cc1cc2oc(=O)cc(C)c2cc1NC(=O)CCl	0.05	-1.03
O=[N+]([O-])c1cc(/C=N/O)ccc1Sc1ccccc1	0.06	-1.05

(continued)
SMILES	KCNQ2 enhance	KCNQ2 enhance baseline
CCC1Oc2ccccc2N(CC(=O)NCCN2C(C)CCCC2C)C1=O (centres undefined)	0.68	0.17
COCCNC(=S)N1CCc2cc(OC)c(OC)cc2C1COc1cc(C)cc(C)c1 (centres undefined)	0.5	-0.07
COc1ccc(-n2c(CSc3nc(C)cc(C)n3)nnc2SCC(=O)Nc2nccs2)cc1	0.3	-1.66
COc1ccc(-c2nc(CS(=O)CC(=O)NC(C)CCc3ccccc3)c(C)o2)cc1OC (centres undefined)	0.15	-1.65
CCCCCSc1nc2c(cnn2-c2ccc(F)cc2)c(=O)[nH]1	0.75	1.71
COc1cc(/C=N/NC(=O)c2ccc(N(C)S(=O)(=O)c3ccccc3)cc2)cc(OC)c1OC	1.03	0.05
CN1C(=O)c2ccccc2C(O)c2ccccc21 (centres undefined)	0.91	0.15
CC(C)Sc1cc(N2CCOCC2)nc(-c2ccccc2)n1	0.25	-1.3
Cc1cccc(C(=O)c2cccc(C)c2)c1	1.5	-0.72
CCC(C)c1ccc(NC(=O)CSc2nncn2N)cc1 (centres undefined)	0.83	0.15
Cc1ccc(-n2nnc3c(=O)n(CC(=O)c4ccccc4)cnc32)cc1	0.42	-0.05
Cc1ccc(-c2cc(C(=O)O)n[nH]2)o1	0.05	-0.2
Oc1cccc(/C=N/Nc2ncnc3c2ncn3Cc2ccccc2)c1	1.3	-0.15
Cc1cc(Cl)ccc1OCC(=O)NCC(=O)N/N=C/c1ccco1	1.3	-0.23
Cn1c(SCC(=O)NCCNC(=O)CSc2nnc(C(F)(F)F)n2C)nnc1C(F)(F)F	0.63	-1.67
CCN(CC)CCSc1nnc2c3cc(C)ccc3n(Cc3ccccc3)c2n1	0.15	-1.1
COc1cc(/C=N/NS(=O)(=O)c2ccc(Br)cc2)ccc1O	0.12	-0.61
Cc1ccc(NC(=O)CN2C(=O)S/C(=C\c3cc(Cl)c(OCC(=O)O)c(Cl)c3)C2=O)cc1	0.2	1.01
Cc1ccc(S(=O)(=O)NC(=O)COc2ccc(Cl)cc2Cl)cc1	0.54	1.47
CCN1CCN(C(=O)c2ccc(N3CC4CC(C3)c3cccc(=O)n3C4)c(NC(=O)c3cc(OC)cc(OC)c3)c2)CC1 (centres undefined)	1.77	-0.07

Among those listed so far, two contain a cyano group:
SMILES	KCNQ2 enhance	KCNQ2 enhance baseline
COc1ccc(Nc2nc3ccc(C)cc3cc2C#N)c(OC)c1	1.13	-0.58
COc1ccc(OC)c(C2C(C#N)=C(N)N(N(C)C)C3=C2C(=O)CCC3)c1 (centres undefined)	0.16	0.12

(continued)
SMILES	KCNQ2 enhance	KCNQ2 enhance baseline
Cc1cc(=O)n2[nH]c(Nc3cccc(Cl)c3)nc2n1	0.81	-0.01
Cn1nc(-c2ccc(Cl)cc2)c2cc(C(=O)NC3CC3)sc21	2.23	-1.51
COc1c2occc2c(OC(C)=O)c2c(=O)cc(C)oc12	1.12	-1.27
COC(=O)C1=C(C)OC(N)=C(C#N)C1c1ccc(OC)c(OC)c1OC (centres undefined)	0.27	1.48
O=C(CCCn1c(SCC(=O)Nc2ccccc2Cl)nc2ccccc2c1=O)NCC1CCCO1 (centres undefined)	0.69	1.94
CC(C)C(NS(=O)(=O)c1cccs1)C(=O)NCCCN1CCCCCC1 (centres undefined)	1.06	1.51
COc1cc(/C=N/NC(=O)c2cccnc2)ccc1OCC(=O)Nc1c(C)cc(C)cc1C	1.03	0.71
CC1(C)CC(=O)C(=C2SCCCS2)C(=O)C1	0.77	-0.28
COC(=O)C1CC(=O)N(CCc2c[nH]c3ccccc23)C1 (centres undefined)	0.75	0.4
NC(=O)c1cccnc1Sc1ccc(Cl)cc1	0.24	0.04
O=C(Cn1cnc2ccccc21)N/N=C/c1ccccn1	0.07	-0.2
O=C(NC1CCCCC1)c1cc2nc(-c3ccco3)cc(C(F)(F)F)n2n1	0.65	1.13
COc1ccc(-n2nnnc2SCC(=O)Nc2nc3c(s2)CCCC3)cc1	1	-1.11
Nc1ncc(Br)cc1S(=O)(=O)NCCC(=O)Nc1cccc(Cl)c1	0.23	-1.49
CCC(C)C(NC(=O)c1ccccc1NC(=O)c1ccco1)C(=O)NNC(=O)c1ccc(OC)cc1 (centres undefined)	1.72	0.94
S=C(Nc1ccc(Oc2ccccc2)cc1)Nc1cccnc1	17.8*	-1.86*
CCc1noc(C)c1C(=O)NCCc1ccccc1	0.01	1.26
O=C(CCN1N=C(c2ccccc2)CCC1=O)NCCCN1CCOCC1	0.62	0.31
CC(c1cccnc1)N(CCN(C)C)C(=O)Nc1ccc(Cl)cc1 (centres undefined)	1.78	-2.2
COc1ccc(CNC(=O)CN(C)S(=O)(=O)c2ccc3c(c2)n(C)c(=O)c(=O)n3C)cc1	0.53	1.44
Cc1nnc(SCC(=O)NCc2ccco2)n1Cc1ccccc1	2.6	2.47
C/C(CC(=O)Nc1ccc(F)cc1)=N\NC(=O)c1ccccn1	0.23	-1.09
O=C(Cn1nnc(-c2ccc3c(c2)OCO3)n1)NCc1ccco1	0.69	1.51
Cc1noc(NS(=O)(=O)c2ccc(N/C=C/C(=O)c3cccnc3)cc2)c1C	1.49	0.66
O=C(Nc1ccccc1C(=O)N1CCOCC1)c1ccc(Cl)cc1	0.69	-1.87
CC1NC(=O)N(C)[C@@H]2NC(=O)N(C)C(c3ccc([N+](=O)[O-])cc3)[C@@H]12 (some centres undefined)	1.16	-0.21
O=C1NC(c2ccco2)Nc2ccccc21 (centres undefined)	0.44	2.36
CCCCCCCCCC(=O)N1c2ccccc2NC(=O)C1CC(=O)Nc1ccc(C(=O)O)cc1 (centres undefined)	0.28	3.63
CNC(=O)NC(=O)CSc1cccc(C(F)(F)F)c1	0.21	0.48
O=C(c1cc(F)c(F)cc1Cl)N1CCOCC1	0.54	-1.56
O=C1c2ccccc2C(=O)C1c1ccccc1F	0.09	-0.43
O=Cc1cc(Br)c(OC(=O)N2CCOCC2)c(Br)c1	1.61	-0.21
O=C(O)c1ccc(N2C(=O)c3ccc(C(=O)c4cccc([N+](=O)[O-])c4)cc3C2=O)cc1	0.3	0.96
CCN(CC)S(=O)(=O)c1cccc(-c2csc(C)n2)c1	1.49	0.01
O=C(NCc1cccc(CNC(=O)C(=O)NCC2CCCO2)c1)C(=O)NCC1CCCO1 (centres undefined)	0.5	-0.65
NC(=O)Nc1cc(Cl)ccc1Cl	1.31	0.67
O=C(CCc1ccccc1)NCc1ccncc1	0.05	0
COc1ccc(-c2n[nH]c(=S)n2-c2ccccc2C)cc1	1.49	-0.08
Cc1nc(NC(=O)C2CC2)sc1C	0.23	-0.67
CSCCC(NS(=O)(=O)c1ccc(C)cc1)C(=O)N1CC=C(c2ccccc2)CC1 (centres undefined)	1.19	-0.02
CCCCn1c(N)c(N(Cc2ccccc2OC)C(=O)COc2ccccc2OC)c(=O)[nH]c1=O	0.85	-0.63
CCCCNc1nc(NC)nc(Cl)c1SC	1.29	-1.93
O=C(NCCc1ccccc1)C1CCC(Cn2c(=O)c3ccccc3n(Cc3cccc(F)c3)c2=O)CC1 (centres undefined)	0.01	0.54
O=[N+]([O-])c1ccc(/C=C/c2ccc3ccccc3n2)cc1	0.08	-0.84
Cn1cc(S(=O)(=O)NCC2CCCO2)c(=O)n(C)c1=O (centres undefined)	1.36	-0.6
O=C(NCc1nc2ccccc2[nH]1)c1ccc(S(=O)(=O)N2CCCC2)cc1	0.45	0.47
COc1cc(NC(=O)CSc2ccc(-c3ccccn3)nn2)cc(OC)c1	0.59	-1.35
O=C(Nc1ccccc1N1CCN(c2ccccc2)CC1)c1ccccc1	0.39	-0.13
CCN1CC(=O)Nc2cc(S(=O)(=O)N3CCOCC3)ccc21	1.15	-0.51
O=C(NC1CCCC1)c1ccc(Cl)c(S(=O)(=O)N2CCOCC2)c1	0.18	-0.17
CCCCNCc1ccc(OCc2ccc(Cl)nc2)c(OC)c1	1.68	1.45
COCCNC(=S)Nc1ccc2nc(N3CCCC3)cc(C)c2c1	0.03	-2.07
Cc1nc(Nc2ccc(Br)cc2Br)c([N+](=O)[O-])c(=O)[nH]1	0.77	2.5
COc1ccc(-c2[nH]ncc2CN2CCN(Cc3cccs3)CC2)c(F)c1	2.22	-1.33
CCOc1ccc(CNS(=O)(=O)c2c(C)nc3scc(C)n3c2=O)cc1OC	1.15	-0.59
CC(C)(C)NC(=O)c1cccnc1Sc1ccccc1	0.21	1.57
CC(=O)Nc1ccc(/C=C2/Sc3ccccc3C2=O)cc1	0.03	0.15
Cc1ccc(NC(=O)c2cc(S(=O)(=O)N3CCOCC3)cs2)cc1	1.07	0.08
CS(=O)(=O)c1ccc(Cl)c(C(=O)NC2CCSc3ccccc32)c1 (centres undefined)	0.55	-0.01
CCc1ccc(CNCCNCC(C)O)cc1 (centres undefined)	1.56	1.07

Reprinted at random: five entries already listed
SMILES	KCNQ2 enhance	KCNQ2 enhance baseline
CCCCNc1nc(NC)nc(Cl)c1SC	1.29	-1.93
O=C(NCCc1ccccc1)C1CCC(Cn2c(=O)c3ccccc3n(Cc3cccc(F)c3)c2=O)CC1 (centres undefined)	0.01	0.54
CCN1CC(=O)Nc2cc(S(=O)(=O)N3CCOCC3)ccc21	1.15	-0.51
O=C(NC1CCCC1)c1ccc(Cl)c(S(=O)(=O)N2CCOCC2)c1	0.18	-0.17
CCCCNCc1ccc(OCc2ccc(Cl)nc2)c(OC)c1	1.68	1.45

Continuation.
SMILES	KCNQ2 enhance	KCNQ2 enhance baseline
Cc1ccc(NC(=O)Cn2cnc3c(=O)n(C)c(=O)n(C)c32)c(C)c1	0.27	0.79
O=C(O)CCc1nn2c3ccccc3nc2n(-c2ccccc2)c1=O	2	-2.44
CCOc1ccc(NC2=CC(=O)CC(c3ccco3)C2)cc1 (centres undefined)	0.84	-2.22
COc1ccc(CN(Cc2ccc(C(=O)O)cc2)C(=S)Nc2cccc(C)c2)cc1OC	0.42	0.56
O=S(=O)(/C=C/c1ccccc1)c1ccccc1	0.25	-0.08
OCCCc1cn(CC2CCCCC2)nn1	0.18	-0.57
CCCSc1ccc([C@H]2N[C@@](C)(C(=O)OC)[C@H]3C(=O)N(C)C(=O)[C@@H]23)cc1	0.04	-0.27
CCN(CC)CCNC(=O)Cc1c(C(=O)O)n(CC)c2ccccc12	0.22	1.73
Cc1cccc2c1N(CCOc1ccc(C(C)(C)C)cc1)C(=O)C2=O	0.12	0.11
O=C(Cn1c2ccccc2c(=O)c2ccccc21)N/N=C/c1cc([N+](=O)[O-])ccc1N1CCCCC1	0.81	-1.84
C=CCn1c(N)c(C(=O)OCC)sc1=S	1.01	-1.45
O=C(Cc1ccc(Br)cc1)NC1CCCCC1	2.94	0.11
O=C(CCn1nc(-c2ccc(Cl)cc2)ccc1=O)N1CCN(c2ccccn2)CC1	0.01	0.01
CCCN1CCN(CCCNC(=S)Nc2ccc3nc(N4CCN(CC)CC4)cc(C)c3c2)CC1	1.09	-0.57
O=C(O)c1cnn(-c2nc(-c3ccc(Br)cc3)cs2)c1C(F)(F)F	3.93	-0.76
O=C1CCCC1C(=O)Nc1ccc2ccccc2c1 (centres undefined)	0.23	-0.69
Cn1cnc2cc(NCc3ccccc3O)ccc21	1.05	-0.07
O=C(O)c1cn(-c2ccccc2)nc1-c1cccnc1	0.46	0.32
